From PubChem BioAssay
Sa RN4220 lethal: S. aureus RN4220 growth inhibition; OD600, 16 h; inhibition, % (concentration not given with the values); 330,000 tested, 0.33% active; AID 1259311;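 active = z-score of -3 or lower and OD600 up to 0.18 on both plates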;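 also: plate controls were untreated cells for no effect and reference antibiotic for full effect; stock transfer was 100 nL into about 80 µL; one replicate is shown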
Sa ugtP lethal: compounds lethal to S. aureus RN4220 ugtP deletion mutant; OD600 growth, 16 h; some inactives read as strong as hits; growth inhibition, % (no concentration beside the values); 330,000 tested, 0.54% active; AID 1259309;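 active = z-score under -3 and OD600 up to 0.15 on both plates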;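 also: plate controls were untreated wells for no effect and antibiotic for full effect; wells of about 80 µL received 100 nL stock; the first replicate is given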
BJeLR lethal: kills HRASV12-expressing BJeLR cells; BJeLR (HRASV12) viability, CellTiter-Glo ATP luminescence, 48 h; reference of the scale not given here; inhibition, % (concentration not given with the values); 300,000 tested, 0.17% active; AID 1554;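 active = replicate mean above 50%; inconclusive = above 50% but judged a plate artefact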;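 also: 50 nL library stock added to about 25 µL; numbers are from one replicate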
Mtb hypoxia inh: reduces hypoxia-regulated biosensor signal in M. tuberculosis | M. tuberculosis hypoxia-regulated fluorescent reporter, fluorescence | fluorescence inhibition, % (concentration not given with the values) | 300,000 tested, 0.1% active | AID 1159583;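 active = 35 to 45% if threefold the growth effect, above 45% if 1.5-fold the growth effect; inactive = the rest, general growth blockers included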;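 also: wells of about 50 µL received 100 nL stock; 0% = vehicle wells and 100% = reference inhibitor wells; whole bacteria with a GFP reporter of the hypoxia response; strong numbers were not always called active; many hits fall short of the cut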
PrP 5UTR inh: suppresses PrP 5' UTR mRNA reporter expression; 340,000 tested, 0.35% active; cell-based PrP 5' UTR mRNA reporter, plate reader; inhibition, % (no concentration beside the values); AID 488862;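 active = every replicate at 50% or more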;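 also: 0 = median of the neutral control wells; tested in H4 reporter cells; numbers are from one replicate; inactives centre near -14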
Bead autofluor: compound fluorescence in toxin protease inhibitor counterscreen. fluorescence intensity (test concentration not listed). compound autofluorescence counterscreen, microsphere flow cytometry; active compounds read high. 360,000 tested, 3.1% active;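 active = at least 3 SD above the mean of all compounds, about 16000 in these data; inconclusive = too few beads counted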;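 also: 100 nL of 1 mM stock went into each well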
Mtb hypoxia inh growth: also measured in Mtb hypoxia inh; calls as there; growth inhibition, %; measured here: M. tuberculosis growth (absorbance);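 0% = vehicle and 100% = reference antibiotic; read after six days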
* hit, by the source's call; ? = inconclusive; nt = not tested or not shown.

SMILES	Sa RN4220 lethal	Sa ugtP lethal	BJeLR lethal	Mtb hypoxia inh	Mtb hypoxia inh growth	PrP 5UTR inh	Bead autofluor
CCOc1ccc(NC(=O)CSc2nc(C)c3c(c2C#N)CCCC3)cc1	1.5	-1	3	-3	-1	-4	4214
Cc1ccc(S(=O)(=O)Oc2ccccc2/C=N/NC(N)=S)cc1	nt	nt	-3	nt	nt	-51	8294
Cn1c(=O)n(C)c2cc([N+](=O)[O-])c(N3CCN(S(=O)(=O)c4ccc(C(C)(C)C)cc4)CC3)cc21	45	-22	-1	9	4	-18	11660
Cc1c(N2C(=O)CS/C2=N\N=C\c2ccc(Br)cc2)c(=O)n(-c2ccccc2)n1C	nt	nt	6	nt	nt	-8	3403
CCn1ccnc1CN(C)C(=O)c1ccc2nc(Cc3ccc(OC)cc3)oc2c1	3.7	6	-1	6	8	-8	5774
CC(OC(=O)CCCN=C1NS(=O)(=O)c2ccccc21)C(=O)Nc1ccc(F)c(F)c1F (configuration not stated)	1.8	1	9	3	6	8	?
NC(=O)C(c1ccc(Cl)cc1)c1ccc(Sc2ccc(Cl)cc2)nn1 (configuration not stated)	-2.6	-15	4	12	5	-18	2363
Cc1ccc(NC(=O)ON=C2CCCC2)cc1	14	7	-5	nt	nt	-81	2115
CCn1c(CC(=O)Nc2ccc(C)cc2)nnc1SCC(=O)NCCc1ccccc1	-0.8	0	-7	6	1	-8	24526*
CC(C)C(=O)N1CCN(CCN=Cc2c(O)n(C)c(=O)n(C)c2=O)CC1	3.4	3	-8	7	5	-19	11190
Cc1oc(-c2ccc3c(c2)OCCO3)cc1C(=O)NC(Cc1ccccc1)C(=O)O (configuration not stated)	13	7	-3	1	10	-12	3841
NC1=NC(=O)S/C1=C\c1ccc(O)cc1	4.6	4	-11	14	6	-26	2552
CC(C)(C)c1ccc(CN(Cc2ccco2)Cc2nnnn2C2CCCC2)cc1	-6.7	20	5	14	12	-8	3175
O=c1[nH]c(SCc2cccc(Cl)c2)nc2[nH]ncc12	4.0	0	-3	-9	1	-31	2508
COc1cc([N+](=O)[O-])ccc1NC(=O)Nc1cccnc1	1.2	-2	-4	-11	14	2	5824
Cc1ccc(C(=O)OCC(=O)NC2CCCCCC2)c(C)c1	3.3	5	nt	5	0	-16	4577
Cc1c(C(=O)Nc2ccc(Cl)cc2)c2ccccn2c1C(=O)c1ccc(F)cc1	-2.9	-16	-9	2	3	-24	10020
CCN(CC)C(=O)c1cc(Cl)ccn1	-1.4	-3	-3	-6	7	4	3759
CC(Cl)C(=O)Nc1cc(C(F)(F)F)ccc1N1CCOCC1 (configuration not stated)	1.3	1	6	7	3	-9	4631
COc1ccc(CC(C(=O)Nc2ccc(OC)cc2)c2nn[nH]n2)cc1 (configuration not stated)	1.6	4	-5	0	0	-20	3392
Cc1[nH]c(=O)[nH]c(=O)c1/C=N/NC(=O)[C@H](CC(C)C)NC(=O)OC(C)(C)C	nt	nt	2	nt	nt	-15	3224
COc1cccc(/C=C/C(=O)OCC(=O)c2ccccc2)c1OC	10	6	nt	6	2	-13	nt
COc1ccc(C2CC(c3cccs3)=NN2C(=O)CSc2nncn2C)cc1OC (configuration not stated)	0.8	0	2	-5	10	-15	4394
CC1(C)Oc2ccc3ccc(=O)oc3c2CC1O (configuration not stated)	3.6	6	-18	7	11	-17	3676
CN1C(=O)C(=C2CCCCCC2)SC1=S	17	1	12	14	8	-13	3140
Cc1onc(-c2c(F)cccc2Cl)c1C(=O)OCC(=O)NC(=O)NCC(C)C	-8.1	-2	3	-1	4	-20	4345
COCCn1c(Cc2cccn2C)nnc1SCC(=O)Nc1nccs1	2.5	0	10	1	1	-11	2335
CCSc1nc2sc3c(c2c(=O)n1-c1ccccc1)CCN(C(C)C)C3	1.9	7	2	6	-7	-13	6785
COC(=O)N/N=C1\CCCc2c(C)cc(C)cc21	nt	nt	10	nt	nt	-10	4964
O=C(COC(=O)CCC(=O)Nc1nccs1)NCc1ccco1	0.2	4	7	9	5	-5	4176
COc1ccc(-n2c(=O)c3ccccc3n(CC(=O)Nc3ccccc3OC)c2=O)cc1	-0.2	11	-11	5	11	-25	5321
COc1ccc(F)c(C2C(C#N)=C(N)Oc3n[nH]c(C(C)(C)C)c32)c1 (configuration not stated)	5.3	7	-10	-6	8	-26	9529
COC1CC=C2CCN3CCC4=C(CC(=O)OC4)[C@]23C1 (some centres not stated)	3.3	-4	nt	-4	0	nt	nt
O=C(OCC(=O)N1CCCCCC1)c1cccs1	-3.7	-2	-7	15	2	-46	3408
C[C@]12CC[C@H](O)CC1=CCC1C2CC[C@@]2(C)C1C[C@@H](O)[C@@H]2O (some centres not stated)	3.7	4	nt	9	4	-42	3850
Fc1ccc(-c2cc(C(F)(F)F)nc(-n3cncn3)n2)cc1	1.6	3	2	4	6	-8	21601*
COc1ccc(NC(=O)C2CCN(S(=O)(=O)c3c(C)noc3/C=C/N(C)C)CC2)cc1	3.5	3	8	5	4	-20	5256
CCN(CC)S(=O)(=O)c1cc(C(=O)O)c(Cl)cc1Cl	3.2	-7	-2	-11	-4	3	4195
O=C(/C=C/c1cccc(F)c1)N1CCc2ccccc21	3.8	5	3	14	10	-79	2437
CCCn1c(C(O)c2ccc3c(c2)OCO3)nc2ccccc21 (configuration not stated)	4.5	-5	-3	6	10	-17	10641

Among those listed so far, these contain a COOH group.
SMILES	Sa RN4220 lethal	Sa ugtP lethal	BJeLR lethal	Mtb hypoxia inh	Mtb hypoxia inh growth	PrP 5UTR inh	Bead autofluor
Cc1oc(-c2ccc3c(c2)OCCO3)cc1C(=O)NC(Cc1ccccc1)C(=O)O (configuration not stated)	13	7	-3	1	10	-12	3841
CCN(CC)S(=O)(=O)c1cc(C(=O)O)c(Cl)cc1Cl	3.2	-7	-2	-11	-4	3	4195

The list goes on:
SMILES	Sa RN4220 lethal	Sa ugtP lethal	BJeLR lethal	Mtb hypoxia inh	Mtb hypoxia inh growth	PrP 5UTR inh	Bead autofluor
CCN[C@@H](C)Cc1cccc(C(F)(F)F)c1	0.9	6	nt	nt	nt	1	6222
Cc1ccc(C)c(C(=O)C(C)OC(=O)c2cccn2C)c1 (configuration not stated)	2.4	4	8	nt	nt	-29	2386
COc1cc(OC)cc(-c2cc(N)n(S(=O)(=O)Cc3ccccc3)n2)c1	-2.7	12	2	2	9	-19	6018
O=C(Nc1ccccn1)c1ccc2nc(-c3ccccc3)c(-c3ccccc3)nc2c1	6.0	6	13	1	0	nt	nt
CCOc1ccc(NC(=O)CN(C)S(=O)(=O)c2ccc3c(c2)CCC(=O)N3)cc1	6.4	5	0	11	2	-22	4824
O=C(CSc1ncnc2ccccc12)Nc1cccc(S(=O)(=O)N2CCCC2)c1	3.9	-13	-4	9	-1	85*	4879
CC(Oc1ccc(Cl)cc1Cl)c1nc(-c2ccc(NC(=O)c3ccco3)cc2)no1 (configuration not stated)	-1.9	2	5	8	15	-37	10288
CCC(CC)C(=O)NCCc1cc2ccc(OC)cc2[nH]c1=O	2.1	10	-3	nt	nt	-17	2148
COc1ccc(N/C=C2/CCCCC2=O)cc1	6.7	-2	nt	6	9	-21	21936*
CC1CCCN(CC(O)CN2CCN(CC(O)CN3CCCC(C)C3)C(C)C2)C1 (configuration not stated)	-1.0	2	nt	14	9	-14	3933

Ordered by number of heavy atoms (low to high): 3 of the compounds above.
SMILES	Sa RN4220 lethal	Sa ugtP lethal	BJeLR lethal	Mtb hypoxia inh	Mtb hypoxia inh growth	PrP 5UTR inh	Bead autofluor
CN1C(=O)C(=C2CCCCCC2)SC1=S	17	1	12	14	8	-13	3140
COC1CC=C2CCN3CCC4=C(CC(=O)OC4)[C@]23C1 (some centres not stated)	3.3	-4	nt	-4	0	nt	nt
COc1cc([N+](=O)[O-])ccc1NC(=O)Nc1cccnc1	1.2	-2	-4	-11	14	2	5824

Further records follow:
SMILES	Sa RN4220 lethal	Sa ugtP lethal	BJeLR lethal	Mtb hypoxia inh	Mtb hypoxia inh growth	PrP 5UTR inh	Bead autofluor
O=C(COC(=O)CCc1c[nH]c(=O)[nH]1)Nc1ccccc1	-0.8	-4	-9	10	7	-14	4265
C#CCOCCOCCOCCNc1nc(N2CCOCC2)nc(N2CCN(C(=O)Cn3cc(CCCN=C(N)N)nn3)CC2)n1	-0.1	-3	-8	-4	-1	-17	3640
O=C1N(Cc2cccc(Cl)c2)C[C@@H]2C[C@@H](c3cccn3-c3nccs3)N3CCC[C@@]123	-0.8	9	15	9	10	-4	5963
O=C(Nc1ccccc1Cl)c1cc2ccccc2o/c1=N\O	nt	nt	1	nt	nt	-82	3431
Cc1ccc(Cn2c([N+](=O)[O-])cnc2C)cc1	nt	nt	-3	nt	nt	-23	10072
O=[N+]([O-])c1ccc(O)c2cccnc12	1.5	7	-1	6	0	-24	2670
COc1ccc([N+](=O)[O-])cc1C=NNc1nc(N2CCCCC2)nc(N2CCCCC2)n1	3.5	1	nt	-3	0	nt	nt
O=C(Nc1ccc(S(=O)(=O)N2CCc3ccccc32)cc1)c1ccco1	11	-17	2	-2	15	-21	10397
COc1ccccc1C1CCN(Cc2cccc3ccccc23)CC1	-7.8	24	0	7	8	nt	3828
CC(=O)N1CCOc2ccc(S(=O)(=O)N3CCC(C)CC3)cc21	3.4	6	8	8	-3	-5	nt
C#C[C@]1(O)CCC2C3CCC4=Cc5nc6nc7ccccc7n6cc5C[C@]4(C)C3CC[C@@]21C (some centres not stated)	-14	57	nt	-23	5	nt	nt
CCN(CC(=O)Nc1ccccc1C(F)(F)F)C(=O)c1oc2c(Cl)cccc2c1C	nt	nt	5	nt	nt	5	5507
Cc1c(NS(=O)(=O)c2cc(C(=O)O)ccc2Cl)c(=O)n(-c2ccccc2)n1C	3.1	2	-4	-9	-3	-4	3510
COc1ccc2oc(C(=O)N3CCCc4ccccc43)c(C)c2c1	2.5	1	-1	4	3	-53	?
CCOc1ccccc1NC(=O)COC(=O)C(CC(C)C)N1C(=O)C2CC=CCC2C1=O (configuration not stated)	8.9	7	8	9	1	-20	2439
CC(C)Cc1csc(NC(=O)c2ccc(Cl)cc2)c1C(=O)O	25	7	-2	9	3	-13	1966
Cc1c(Br)c([N+](=O)[O-])nn1C(C)C(=O)NCC1CCCO1 (configuration not stated)	4.6	9	5	-6	8	-6	4256
CN(CC(=O)N1CCc2ccccc21)S(=O)(=O)c1cccc2cccnc12	-1.5	5	-5	nt	nt	-40	5655
c1ccc2c(NC3=NCCS3)cccc2c1	2.1	-4	-1	nt	nt	-33	2467
O=C(COc1coc(CN2CCc3ccccc3C2)cc1=O)Nc1ccc(Cl)cc1	2.7	-1	3	-1	-1	-3	nt
CCN(CC(=O)Nc1ccc(NC(C)=O)cc1)C(=O)c1cccnc1Sc1ccc(C)c(C)c1	0.5	2	5	0	-2	-19	?
CCOC(=O)C1CCCN(C(=O)c2cn(C)c3ccc(S(=O)(=O)N(C)C)cc3c2=O)C1 (configuration not stated)	1.7	14	nt	nt	nt	-3	4757
CCn1c(CS(=O)Cc2ccc(Cl)cc2Cl)nnc1SCc1c(Cl)cccc1Cl (configuration not stated)	-2.3	-6	2	9	7	-17	11445
Cc1nn(-c2ccccn2)c2c1C(=O)CC(C)(C)C2Br (configuration not stated)	5.6	7	0	4	12	-6	4455
CCCCC[C@@H]1C=C(C(=O)O)[C@H](c2ccc(CC)cc2)N1S(=O)(=O)c1ccc(C)cc1	18	-18	nt	-5	-2	-7	2729
O=C(CSC1=NC(=O)C(c2ccccc2)C(=O)N1)Nc1ccccc1Cl (configuration not stated)	-1.7	10	0	nt	nt	-12	4783
O=C(CS(=O)(=O)Cc1ccccc1)NCC1CCCO1 (configuration not stated)	4.7	3	2	-42	30	-9	4312
CNC(=O)NC(=O)C(C)OC(=O)c1c2c(nc3ccccc13)/C(=C/c1cccs1)CC2 (configuration not stated)	16	72	8	-5	0	-26	6966
COC(CNC(=O)C(=O)Nc1cc2c3c(c1)CCN3C(=O)CC2)OC	-1.9	-1	4	-11	-11	-25	nt
C#CCOCCOCCOCCNc1nc(N2CCOCC2)nc(N2CCN(C(=O)C(CCCCN)n3cc(C(N)C(C)CC)nn3)CC2)n1 (configuration not stated)	6.1	1	nt	13	14	nt	nt
CC(C)(C)NC(=O)Cn1nnc(-c2ccc(Cl)cc2)n1	8.1	5	3	5	6	-16	10248
O=C(OCc1ccccc1)C1=NNC2C(=O)N(Cc3ccccc3)C(=O)C12 (configuration not stated)	1.6	3	-2	6	5	-22	4072
O=C(CNC(=O)c1ccc(Br)o1)NCC1COc2ccccc2O1 (configuration not stated)	0.2	4	nt	-2	1	-4	3032
